# Assay outcomes from PubChem BioAssay.
# Sfp inh – inhibitors of Bacillus subtilis Sfp phosphopantetheinyl transferase | Biochemical Sfp PPTase activity, qHTS | Potency, µM, without a hit: max response, negative = inhibition, most hits filed as inhibitors | actives 3.5% (n = 310,000); active = well fitted inhibition curve with a large enough effect; inconclusive = small, poorly fitted or top-dose-only effect, or another doubt; inactive = no such curve, though single readings can be large or run the other way;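 note: the enzyme is Sfp with the accession as filed and its product quenches rhodamine fluorescence; potency is the fitted concentration of half-maximal effect; 0% = enzyme reaction without inhibitor and -100% = no enzyme wells; top concentration of the series not given in the record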
#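 With Hepes-Na pH 7.6 buffer containing 10 mM MgCl2, Sfp (15 nM) modified BHQ-2-YbbR (12.5 uM) using rhodamine-CoA (5 uM). Two reads 30 minutes apart at 525/598 nm yielded each well's rate.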
# gsp antagonist – gsp mutant antagonism. gsp-mutant cells, cAMP HTRF, 30 min; control for the full effect not named in the record. Potency, µM (highest dose often 76.9 µM), for inactives: at the top dose activity change, negative = inhibition, actives largely listed as inhibitors. actives 0.4% (n = 340,000). AID 624288; active = falling curve of any shape with a large fitted effect; inconclusive = falling curve, mostly with a smaller effect; inactive = flat or rising curve; cell line not stated here;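 note: intracellular cAMP measured with PDE inhibitor Ro 20-1724 present during compound exposure; potency is the fitted concentration of half-maximal effect; % is set by controls: 0 for no effect and ±100 for the full control effect; nearly all actives have a fitted effect of over 65% in size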
#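 Cells in G418 medium, seeded 16-24 h, 37C; buffer exchange to DPBS + 1 mM CaCl2, 0.5 mM MgCl2, 0.05% BSA; cpds in DMSO + […] (300 uM stock), 30 min 37C; HTRF cAMP detection.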
# Menin-MLL FL inh – menin-MLL binding inhibition, fluorescein peptide. Fluorescence polarization, fluorescein-MLL peptide displacement from menin. FP activity change, % at 61.4 µM. 290,000 tested, under 10 active. AID 1766; inconclusive = falling polarisation curve, or a change in total fluorescence; inactive = total fluorescence flat and polarisation flat or rising; no compound was filed as active; the % refers to the polarisation; negative = inhibition;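 note: % of control where 0% means no effect; inhibitors lower the polarisation; unlabelled MLL peptide was the positive control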
# ClpP mod – qHTS Assay for Activators of ClpP. ATP-dependent Clp protease proteolytic subunit (Bacillus subtilis (strain 168)), P80244. actives 1.9% (n = 340,000). Potency, µM (top dose mostly 57.5 µM), for the others: top-dose activity change, negative = active. purified B. subtilis ClpP, FRET peptide cleavage, 20 min; active = well fitted falling curve with a large enough effect; inconclusive = small, poorly fitted or top-dose-only effect; inactive = no such curve, though single readings can be large or run the other way; note: potency is the fitted concentration of half-maximal effect; the source files actives as falling curves though it sought activators and does not explain the sign; nearly all actives have a fitted effect of over 65% in size; many hits overshoot -100%
# Target sequence (P80244 whole entry, looked up): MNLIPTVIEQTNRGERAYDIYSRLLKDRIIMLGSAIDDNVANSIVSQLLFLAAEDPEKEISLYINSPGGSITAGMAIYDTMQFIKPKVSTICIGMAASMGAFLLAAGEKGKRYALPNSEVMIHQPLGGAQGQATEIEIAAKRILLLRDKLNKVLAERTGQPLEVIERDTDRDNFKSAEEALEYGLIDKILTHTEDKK
#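 Buffer: 100 mM Tris/HCl pH8, 100 mM KCl, 0.05% low protease BSA, 2.5% glycerol, 0.01% Tween-20. ClpP 10 microg/mL final; 20 min RT; delta FRET normalized to ADEP and DMSO controls.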
# D2 PAM – human D2 receptor positive allosteric modulation; P14416; potentiation, % (concentration not given with the values); DiscoveRx D2 beta-arrestin cells, luminescence, 90 min; 100% = 57 uM dopamine signal; actives 0.23% (n = 360,000); active = potentiation of 50% or more; inconclusive = 30% to 50%; inactive = 30% or less;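 note: compound concentration not given in the record; tested on top of an EC20 dose of dopamine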
#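 D2 cells co-treated with compound plus 50 nM dopamine (EC20) for 90 min at 37 deg C to detect potentiation. Beta-arrestin recruitment was read as enzyme-fragment luminescence after 1 h at ambient temperature. Full response was set by 57 uM dopamine.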
# gsp ag – agonists of gsp mutant (McCune-Albright syndrome); gsp mutant cells, cAMP HTRF, 30 min; control for the full effect not named in the record; Potency, µM (doses to about 76.9 µM), without a hit: top-dose activation (cAMP increase), usual class: activators; actives 0.13% (n = 340,000); active = well fitted activation curve with a large enough effect; inconclusive = small, poorly fitted or top-dose-only effect, or another doubt; inactive = no such curve, though single readings can be large or run the other way; cell line not stated here;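 note: phosphodiesterase inhibitor Ro 20-1724 added with compounds to block cAMP breakdown; potency is the fitted concentration of half-maximal effect; nearly all actives have a fitted effect of over 60% in size; about a fifth of the inactives were tested at one dose only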
#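 Cells stably selected in G418 were plated at 2000/well, grown 16-24 hr, then given compounds in DMSO with the PDE inhibitor […] (300 uM solution added) for 30 min at 37C; cAMP was read by HTRF.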
# TRPV1 PAM – human TRPV1 potentiation | Q8NER1 | TRPV1-expressing cells, Fluo-8 calcium influx, capsaicin EC20 potentiation; host cell line not named in the record; control for the full effect not named in the record | potentiation, % at 8.33 µM | actives 0.02% (n = 320,000) | AID 540277; active means potentiation above 80%; inconclusive means 30% to 80%; inactive means below 30%; note: 0% is about no effect
# Target sequence (Q8NER1 whole entry, looked up): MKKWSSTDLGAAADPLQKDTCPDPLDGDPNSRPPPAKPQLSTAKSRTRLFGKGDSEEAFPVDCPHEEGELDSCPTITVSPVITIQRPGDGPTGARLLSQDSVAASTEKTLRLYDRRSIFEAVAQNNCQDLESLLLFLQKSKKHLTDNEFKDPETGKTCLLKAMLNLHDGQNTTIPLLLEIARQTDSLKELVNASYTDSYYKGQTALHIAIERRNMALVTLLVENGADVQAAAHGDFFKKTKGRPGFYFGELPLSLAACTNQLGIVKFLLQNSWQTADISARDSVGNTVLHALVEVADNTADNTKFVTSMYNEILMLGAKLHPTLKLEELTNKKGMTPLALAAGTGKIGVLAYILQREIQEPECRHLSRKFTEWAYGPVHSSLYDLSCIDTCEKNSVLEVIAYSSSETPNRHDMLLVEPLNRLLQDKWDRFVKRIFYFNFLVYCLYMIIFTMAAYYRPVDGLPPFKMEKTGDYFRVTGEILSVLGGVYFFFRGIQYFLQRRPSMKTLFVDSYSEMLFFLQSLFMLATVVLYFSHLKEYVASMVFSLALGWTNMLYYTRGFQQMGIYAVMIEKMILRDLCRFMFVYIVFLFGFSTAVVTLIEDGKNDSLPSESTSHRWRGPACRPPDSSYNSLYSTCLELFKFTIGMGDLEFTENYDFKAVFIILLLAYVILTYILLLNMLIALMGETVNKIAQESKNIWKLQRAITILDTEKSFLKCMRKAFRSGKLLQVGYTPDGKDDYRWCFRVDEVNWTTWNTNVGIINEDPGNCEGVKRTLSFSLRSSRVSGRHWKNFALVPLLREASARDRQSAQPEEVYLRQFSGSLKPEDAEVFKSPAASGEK
#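 Fluo-8 calcium influx in TRPV1-expressing cells, kinetic read (ex 480/em 520 nm). Compound added and read 3 min for agonist activity, followed by capsaicin at EC20 final and 2 min further read for enhancement.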
# * marks the source's active call; other numbers are inactive results; ? = inconclusive; nt = no result given; & = joins results of further samples; [ ] = another dose, or the depositor's remark.
Molecule	Sfp inh	D2 PAM	Menin-MLL FL inh	TRPV1 PAM	ClpP mod	gsp antagonist	gsp ag
CCOc1ccc(C2C(C(=O)Nc3ccc(F)cc3)=C(C)Nc3nc(CCCO)nn32)cc1 (stereo not given)	6%	-7	2.4	nt	0.0%	5%	2%
Cc1c(NS(=O)(=O)c2cccc3nsnc23)c(=O)n(-c2ccccc2)n1C	2%	-25	1.0	-2	1.2%	-3%	-6%
O=C(O)CC(CCc1ccccc1)OC1OC(CO)C(O)C(O)C1O (stereo not given)	-8%	-24	3.7	3	-7.3%	5%	nt
CCOC(=O)Nc1ccc(S(=O)(=O)NCc2ccccc2)cc1	-1%	1	-0.2	nt	-1.6%	9%	-7%
Cc1ccccc1CN1CCC(CNC(=O)Nc2ccc(F)cc2F)CC1	8%	-29	-2.9	1	-1.7%	11%	-33%[inhibitor]
NC(=O)c1cc(C(=O)Cc2ccc(Cl)cc2)c[nH]1	-1%	-6	-2.1	10	-4.8%	21%	2%[15.4 µM]
Cc1ccc(C(=O)NC2c3ccccc3-c3ccccc32)cc1	11%	-19	4.0	4	-4.1%	15%	10%
OCCN1CCN(c2nnc(-c3ccccc3)c3ccccc23)CC1	22%	-15	8.0	-5	0.0%	-1%	14%
O=C1c2ccccc2CN1CCNS(=O)(=O)c1ccc(Cl)cc1	8%	-6	-0.6	1	-0.9%	4%	-28%
CC(C)Cn1c(=O)c(C(=O)Nc2ccccc2S(N)(=O)=O)c(O)c2ccccc21	33%	-1	0.3	8	6.5%	?	10%
C#CCOCCOCCOCCNc1nc(N2CCN(C(=O)[C@H](CO)n3cc([C@@H](N)C(C)C)nn3)CC2)nc(N2CCN(C(=O)[C@H](CO)n3cc([C@@H](N)C(C)C)nn3)CC2)n1	nt	-3	nt	nt	0.8%	8%	nt
CC1=NN(c2ccccc2C)C(=O)C1	nt	-6	nt	nt	nt	-9%	-4%
Cc1ccc(NC(=O)c2ccc3nc[nH]c3c2)c(O)c1	-23%	-1	-0.6	-6	-1.3%	6%	-5%[15.4 µM]
COc1ccc(OCc2nnc(SCC(=O)NCC3CCCO3)n2N)cc1 (stereo not given)	nt	-16	nt	nt	-1.1%	9%	0%[15.4 µM]
CC(C)c1ccc(N(CC(=O)NCCSCc2ccco2)S(C)(=O)=O)cc1	15%	-7	3.4	-6	nt	4%	5%[15.4 µM]
Cc1csc(NC(=O)CSc2nnc3c4ccccc4nc(C(C)(C)C)n23)n1	10%	2	-1.3	2	1.2%	-1%	-59%[inhibitor]
COC(=O)c1ccc(OC(=O)c2cnccn2)cc1	-8%	0	0.0	1	nt	9%	16%
O=C(NCC1CCCO1)c1ccccc1NS(=O)(=O)c1cc([N+](=O)[O-])ccc1Cl (stereo not given)	nt	-14	nt	nt	1.3%	?	1%
CCOC(=O)c1oc2c(c1C)/C(=N/O)CCC2	-2%	-8	3.6	nt	3.0%	25%	11%
COc1cccc(C=NNC(=O)c2ccncc2)c1O	nt	-8	nt	nt	nt	2%	1%
CC(C)=C1C2CCC1C(C(=O)NCCc1ccccc1)C2C(=O)O (stereo not given)	-3%	-10	1.5	18	5.5%	8%	?
CSc1ncc(Cl)c(C(=O)Nc2ccccc2[N+](=O)[O-])n1	10%	-1	-0.1	2	0.8%	5%	-1%[15.4 µM]
COc1ccc(C(=O)Nc2cccc3nc(C)ccc23)c(OC)c1	-3%	-6	0.1	7	0.7%	1%	-9%[15.4 µM]
CCS(=O)(=O)N1Cc2ccccc2CC1C(=O)Nc1ccc(F)cc1 (stereo not given)	1%	-14	1.5	-6	0.6%	3%	1%
O=C(CN1C(=O)CSC1=O)Nc1ccccc1N1CCOCC1	-2%	3	-1.3	9	0.2%	20%	-6%
COc1cc(OC)c(C2C(C#N)=C(N)Oc3cc(C)n(CCCN4CCOCC4)c(=O)c32)cc1OC (stereo not given)	32%[activator]	-1	1.9	1	-0.2%	2%	7%
CN(C(=O)CSc1nnc(COc2ccccc2F)n1N)C1CCS(=O)(=O)C1 (stereo not given)	nt	-67	nt	-3	nt	2%	-10%[15.4 µM]
COc1cccc(CN(C)C(=O)C2CSC3(C)CCC(=O)N23)c1OC (stereo not given)	nt	-3	nt	-14	0.3%	13%	-15%
O=C(c1cccs1)N1N=C(c2ccccc2)CC1c1ccc(O)cc1 (stereo not given)	20µM*	-16	12	-13	-3.5%	28µM*	23%
Clc1ccc(COc2ccccc2-c2ccnc3ncnn23)cc1	10%	-1	-0.1	5	4.0%	-22%	0%
CCCc1cc(=O)n2[nH]c(C)c(-c3ccccc3OC)c2n1	nt	-33	nt	nt	-16%	nt	10%
Nc1nccnc1C(=O)OCC(=O)NCCc1ccc(S(N)(=O)=O)cc1	nt	-2	nt	-6	1.2%	3%	-11%[15.4 µM]
O=C(O)c1ccccc1S(=O)CCO (stereo not given)	14%	-8	0.8	1	2.4%	13%	0%
Cc1cc(SCC(=O)N(C)c2c(N)n(Cc3ccccc3)c(=O)[nH]c2=O)nc2ccccc12	?	-1	-3.1	1	0.9%	4%	8%
COc1cccc(-n2c(CNc3ccc(F)cc3)nnc2SCC(N)=O)c1	1%	-15	2.0	1	0.1%	-3%	-11%
O=C(Nc1ccc(Cl)cc1)Nc1ccc2c(c1)N1CCN=C1S2	-2%	6	1.4	-13	-4.7%	?	-3%
CCc1ccc2nc(SCC(=O)N(CC)CC)c(C#N)cc2c1	-6%	-30	-2.5	-16	1.0%	-15%	26%
Cc1nc2ccccc2c(=O)n1NC(=O)c1ccc(Cl)c([N+](=O)[O-])c1	4%	2	1.2	11	-1.7%	?	?
CCc1cc2c(COC(=O)c3cccc(NS(C)(=O)=O)c3)cc(=O)oc2cc1O	14%	6	1.3	4	nt	?	23%
CCC(=O)c1ccc2ncccc2c1	0%	1	3.3	2	1.2%	-4%	-5%
Cc1ccc(C(=O)n2c(=S)nc3ccccn32)cc1	?	nt	0.9	8	nt	nt	nt
Cc1ccc(N=CC=C2OC(C)(C)C(C)(C)O2)cc1	0%	-26	nt	-13	-4.8%	-22%	-21%
Cc1ccc(S(=O)(=O)N(C)C[C@@H]2OCc3cnnn3CCCC(=O)N([C@H](C)CO)C[C@H]2C)cc1	nt	-4	nt	nt	-2.2%	nt	-48%[inhibitor]
COc1ccc(S(=O)(=O)n2nc(OC(=O)c3ccncc3)cc2N)cc1	-5%	-4	-2.6	9	-4.4%	12%	nt
Cc1cnc(C(=O)OCC(=O)Nc2ccc(C)c(S(=O)(=O)N3CCCCCC3)c2)cn1	-15%	6	4.4	-2	nt	-4%	-6%[15.4 µM]
COc1cc2cnc(-c3ccccc3)c(-c3cccc(C(F)(F)F)c3)c2cc1OC	nt	162*	nt	0	-15%	-1%	nt
COc1cccc(-c2cc(C(=O)Nc3cccnc3)no2)c1	4%	-2	2.0	-20	10.0%	25%	10%
O=C(C1CCN(S(=O)(=O)c2cccc3cccnc23)CC1)N1CCCCC1	7%	-1	-4.8	24	-0.5%	-24%	-1%
N#Cc1ccc(C(=O)Nc2cccc3cccnc23)c(F)c1	-5%	2	2.6	-6	0.0%	2%	7%
Cc1ccc(S(=O)(=O)N2CCOC2CNC(=O)C(=O)NCc2cccnc2)cc1 (stereo not given)	17%	1	2.9	6	0.4%	8%	-10%
CC(C)COC(=O)C1C2C=CC3(CN(C(C)c4ccc(Br)cc4)C(=O)C13)O2 (stereo not given)	15%	-1	0.0	-49	-0.4%	-1%	-41%[inhibitor]
COc1ccc(N2Cc3ccccc3C2=O)cc1	12%	5	8.3	-2	0.3%	-12%	6%[15.4 µM]
CN(Cc1ccc(Cl)cc1Cl)C(=O)CNC(=O)c1ccc2c(c1)OCO2	nt	-10	nt	-21	-15%	7%	0%
CN(C)S(=O)(=O)c1ccc(-c2csc(N/N=C/c3ccc(O)cc3)n2)cc1	50µM*	57*	-1.1	-4	nt	32µM*	7%[15.4 µM]
O=C(OCC(=O)N1CCCC1)c1cc(F)c(F)cc1Cl	8%	0	3.3	18	nt	6%	-1%[15.4 µM]
O=C(Nc1ncn[nH]1)c1cc([N+](=O)[O-])ccc1Cl	-4%	-4	-2.6	14	1.5%	4%	19%

# New compounds follow:
Molecule	Sfp inh	D2 PAM	Menin-MLL FL inh	TRPV1 PAM	ClpP mod	gsp antagonist	gsp ag
O=C(CSc1nccn1-c1ncc(C(F)(F)F)cc1Cl)c1ccc(Br)cc1	0%	-14	2.3	17	-2.0%	6%	0%
Cn1cc(C(=O)N2CCc3ccccc32)cn1	4%	-9	4.3	3	2.2%	-2%	-8%
CN1CCC(N(C)C(=O)c2cc(-c3ccc(F)cc3)nc3ccccc23)CC1	nt	-28	nt	nt	-1.3%	-3%	21%[15.4 µM]
O=C(NCCN1CCN(c2ccccc2)CC1)c1cccn2c(=O)c3cc(Cl)ccc3nc12	9%	-14	0.1	2	0.1%	3%	?
COc1ccccc1NS(=O)(=O)c1cc([N+](=O)[O-])ccc1N/N=C/c1c(C)[nH]c2ccccc12	9%	-17	13	?	0.4%	5%	19%
CCN1CCN(C(=O)c2ccc3c(=O)n(CCc4ccccc4)c(=O)[nH]c3c2)CC1	20%	-3	3.2	3	nt	-14%	5%[15.4 µM]
O=C(O)CN1C(=O)S/C(=C\c2cccnc2)C1=O	56µM*	-11	1.6	-25	-0.4%	0%	7%
CCOc1ccc(NS(=O)(=O)c2c(C)nc3sc(CC)nn3c2=O)cc1	-2%	0	-2.3	?	0.9%&-2.7%	4%	-30%
COC(=O)c1cc2ccsc2n1CC(=O)N(C)C1CCCCC1	0%	-33	2.2	0	2.1%	-5%	1%[15.4 µM]
COc1ccc(NC(=O)CSc2nc3ccccc3c(=O)[nH]2)cc1S(N)(=O)=O	nt	-9	nt	3	?	7%	?
COc1ccc(-c2nc(NC(=O)C3CC(=O)N(c4ccc5c(c4)OCCO5)C3)sc2C)cc1 (stereo not given)	-24%	-3	2.3	5	-6.1%	-17%	-5%
O=C(Cn1c(SCc2ccccc2)nc2ccccc21)N1CCOCC1	17%	-10	1.1	3	-1.8%	-9%	-3%
